Anthrax LT inh = blocks cellular internalization of anthrax lethal toxin | Cells, anthrax lethal toxin internalization, FRET ratio (460/530) | Potency, µM (highest dose often 40 µM), without a hit: at the highest dose activity change, negative = inhibition, usual class: inhibitors | actives 0.67% (n = 70,000); active = well fitted falling ratio curve with the 530 nm signal flat; inconclusive = other ratio curves, or a change in one channel alone; inactive = flat curves in the ratio and both channels; the % refers to the ratio; also: % is scaled to controls: 0 for no effect and ±100 for the full control effect; nearly all actives have a fitted effect of over 50% in size; tested in ME-180 cells; beta-lactamase reporter
SmPrx2 inh = inhibitors of Schistosoma mansoni peroxiredoxin 2; S. mansoni Prx2 activity coupled to TGR/GSH (TGR is thioredoxin glutathione reductase), NADPH fluorescence loss, qHTS; some inactives read as strong as hits; Potency, µM; actives 0.07% (n = 65,000); AID 448; active means full or partial inhibition curve with a strong effect at the top dose; inconclusive means weaker partial or single-point curve; inactive means no accepted curve; also: series up to 57 µM; many of its hits are not listed in these tables
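Purified S. mansoni TGR and Prx2 in pH 7.4 phosphate buffer with EDTA and Tween-20 were preincubated with compounds for 15 min. Further NADPH/GSH was added, then a 2.5 mM H2O2 aliquot initiated turnover, followed kinetically by NADPH fluorescence.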
Numbers without * were called inactive; ? = inconclusive; · = not tested or not shown; [ ] = remark or other dose. Potency is read from the fitted curve at half-maximal effect. Not all compounds are listed; rates above refer to the full screens.

SMILES	Anthrax LT inh	SmPrx2 inh
O=C(Oc1c(Cl)cc(Cl)c2cccnc12)N1CCOCC1	-12.2%	>57
Cc1ccccc1NC1=NCCCS1	-0.4%	>57
Cc1c(NC(=O)C2CCCN2C(=O)c2cccs2)c(=O)n(-c2ccccc2)n1C (stereo not given)	16.9%	>57
CCCN1CCC(N(C)CCc2ccc(OC)c(OC)c2)CC1	?	·
C[C@@H]1O[C@H](O[C@@H]2\C=C/C=C\C=C/C=C\C[C@H](C)OC(=O)/C=C\[C@H]3O[C@@H]3C[C@H](O)C[C@]3(O)C[C@@H](O)[C@@H](C(=O)O)[C@H](C2)O3)[C@@H](O)[C@H](N)[C@@H]1O (stereo in doubt)	7.0%[3.58 µM]	>57
COc1cc(C(=O)Nc2ccc(S(=O)(=O)N3CCCCC3C)cc2)cc(OC)c1OC (stereo not given)	?	>57
Cc1nnc(SCC(=O)Nc2ccc3c(c2)COC3=O)n1-c1ccccc1	-12.1%	>57
O=C(Nc1cc(C(=O)N2CCCC2)ccc1N1CCCC1)c1ccccc1	?	>57
CCC(C)Nc1nc2c(c(=O)n(C)c(=O)n2C)n1Cc1ccc(F)cc1 (stereo not given)	-20.3%	>57
Cc1ccc(C)c(N2CCN(C(=O)Cn3cccc3)CC2)c1	-3.6%	·
CC1CN(C(c2cccs2)c2sc3ncnn3c2O)CC(C)O1 (stereo not given)	3.9%	>57
CCOc1cc2[nH]c(=S)n(CCCCC(=O)NCc3ccco3)c(=O)c2cc1OCC	-3.8%	>57
O=C(Nc1ccccc1N1CCN(c2ccccc2)CC1)C1CCCCC1	1.5%	>57
O=C(c1cc(-c2ccco2)on1)N1CCCc2ccccc21	-20.1%	>57
CCCOC1(NC(=O)c2ccccc2)C(C)=CC(=O)C=C1C	-17.3%	>57
O=C(Cc1cc(=O)[nH]c(=O)[nH]1)NCCN1CCOCC1	-8.7%	>57
Cc1ccc2c(c1)[nH]c1c(=O)n(Cc3ccccn3)cnc12	4.3%	>57
O=C(c1cc2ccccc2oc1=O)N(Cc1cccs1)C1CCS(=O)(=O)C1 (stereo not given)	5.4%	>57
CCN(CC)S(=O)(=O)c1cc(C(=O)Nc2ccccn2)ccc1C	-4.6%	>57
COc1ccc(C)cc1NC(=O)Cn1cnc2sc(C)c(S(=O)(=O)N3CCOCC3)c2c1=O	-3.3%	>57

A second format for 14 compounds above.
compound | Anthrax LT inh | SmPrx2 inh
O=C(Oc1c(Cl)cc(Cl)c2cccnc12)N1CCOCC1 | -12.2% | >57
Cc1ccccc1NC1=NCCCS1 | -0.4% | >57
Cc1c(NC(=O)C2CCCN2C(=O)c2cccs2)c(=O)n(-c2ccccc2)n1C (stereo not given) | 16.9% | >57
CCCN1CCC(N(C)CCc2ccc(OC)c(OC)c2)CC1 | ? | ·
C[C@@H]1O[C@H](O[C@@H]2\C=C/C=C\C=C/C=C\C[C@H](C)OC(=O)/C=C\[C@H]3O[C@@H]3C[C@H](O)C[C@]3(O)C[C@@H](O)[C@@H](C(=O)O)[C@H](C2)O3)[C@@H](O)[C@H](N)[C@@H]1O (stereo in doubt) | 7.0%[3.58 µM] | >57
COc1cc(C(=O)Nc2ccc(S(=O)(=O)N3CCCCC3C)cc2)cc(OC)c1OC (stereo not given) | ? | >57
Cc1nnc(SCC(=O)Nc2ccc3c(c2)COC3=O)n1-c1ccccc1 | -12.1% | >57
O=C(Nc1cc(C(=O)N2CCCC2)ccc1N1CCCC1)c1ccccc1 | ? | >57
CCC(C)Nc1nc2c(c(=O)n(C)c(=O)n2C)n1Cc1ccc(F)cc1 (stereo not given) | -20.3% | >57
Cc1ccc(C)c(N2CCN(C(=O)Cn3cccc3)CC2)c1 | -3.6% | ·
CC1CN(C(c2cccs2)c2sc3ncnn3c2O)CC(C)O1 (stereo not given) | 3.9% | >57
CCOc1cc2[nH]c(=S)n(CCCCC(=O)NCc3ccco3)c(=O)c2cc1OCC | -3.8% | >57
O=C(Nc1ccccc1N1CCN(c2ccccc2)CC1)C1CCCCC1 | 1.5% | >57
O=C(c1cc(-c2ccco2)on1)N1CCCc2ccccc21 | -20.1% | >57

Continued.
SMILES	Anthrax LT inh	SmPrx2 inh
CC1(C)CC(=O)C2=C(C1)N(CCN1CCOCC1)C1=C(C(=O)CC(C)(C)C1)C2c1ccc(Cl)cc1	?	>57
CC1CCCC(NC(=O)c2n[nH]c(=O)c3ccccc23)C1C (stereo not given)	22.7%	>57
COC(=O)[C@H](CCSC)NC(=O)Nc1ccc(C)cc1	·	>57
CCN(C(=O)COC(=O)c1cnc(C)cn1)C1CCCCC1	12.8%	>57
CCOC(=O)C1CCCN(C(=O)c2cc(Cl)ccc2Cl)C1 (stereo not given)	-13.3%	>57
Cn1cccc1C(=O)N1CCC2(CCCN(Cc3nccs3)C2)CC1	?	>57
Cc1cc(C)cc(N(CC(=O)O)S(=O)(=O)c2cccnc2)c1	-2.0%	>57
Clc1ccc(-c2nnn(Cc3nc4ccccc4s3)n2)cc1	?	>57
Cc1nn(Cc2ccccc2)c(C)c1NC(=O)CSc1nc2sc3c(c2c(=O)n1C)CCC3	6.7%	>57
c1ccc2sc(SN3CCOCC3)nc2c1	0.0%	>57
CCOCCCNC(=O)CN1C(=O)C(CC)Oc2ccccc21 (stereo not given)	5.1%	>57
CC(=O)N1CCN=C1SCc1ccccc1	10.7%	>57
C=CCOn1c(=O)c(C)[n+]([O-])c2ccccc21	?	>57
O=S(=O)(c1ccccc1)N1CCC2(CC1)CN(c1ccccn1)C2	?	>57
CC(C)(C)OC(=O)N1CCC[C@H]1c1nnc(SCc2ccc(Cl)cc2Cl)o1	-26.5%	>57
Cn1c(=O)c2c(ncn2CC(=O)N(Cc2ccccc2)c2ccccn2)n(C)c1=O	-2.9%	>57
C1CCN=C(Nc2nc3c(s2)CCCC3)CC1	-3.2%	>57
O=c1cc(-c2cccc(O)c2)oc2c(O)c(O)ccc12	?	>57
CC(C)=NOCc1cccc(-c2cc(-c3ccccc3)no2)c1	-4.9%[8 µM]	·
C/C(N)=C(/C#N)C(=O)COC(=O)c1cc(C)n(-c2ccc(F)cc2)c1C	-11.9%	>57
Cc1cccc(CSc2nnc(-c3ccccn3)n2N)c1	8.2%	>57
CCC1(CC)Cc2ccccc2-c2nc(CN3CCOCC3)[nH]c(=O)c21	9.3%	>57
CS(=O)(=O)N1CCC(NC(=O)Cc2ccccc2)CC1	-5.0%	>57
CCc1ccc2[nH]c(=O)c(CN(CCN(C)C)C(=O)Nc3ccccc3)cc2c1	-10.9%	>57
Cc1ccc(-c2nc(CSCC(=O)N3CCOCC3)c(C)o2)cc1	-1.3%	>57
O=C1c2ccccc2C(Nc2ccc3c(c2)OCO3)N1Cc1ccco1 (stereo not given)	0.4%	>57
O=C(c1ccncc1)c1ccc(Br)cc1	4.0%	>57
Cc1noc(C)c1COc1ccc(C(=O)OCC(=O)NC(=O)C2COc3ccccc3O2)cc1 (stereo not given)	-1.8%	>57
O=C(CCc1ccc(O)cc1)c1c(O)cc(O)cc1O[C@@H]1O[C@@H](CO)[C@@H](O)[C@@H](O)[C@H]1O	-1.0%	>57
CN=C1SC(C(=O)O)CC(=O)N1C (stereo not given)	0.2%	>57
COc1ccc2c(c1)CCc1c(C(=O)N3CCOCC3)noc1-2	10.4%	>57
CCc1ccccc1N(C(=O)c1cccs1)C1C=CS(=O)(=O)C1 (stereo not given)	-5.1%	>57
CN(Cc1ccccc1)c1nc2c(c(=O)[nH]c(=O)n2C)n1C	-19.0%	>57
COc1ccc(N2CCN(C(=O)C(CCSC)N=C3NS(=O)(=O)c4ccccc43)CC2)cc1 (stereo not given)	2.5%	?
COc1ccccc1CN1C(=O)[C@@H]2C(CC(N)=O)NC3(C(=O)Nc4c3ccc(Cl)c4C)[C@@H]2C1=O (stereo not given in full)	-5.4%	>57
O=C(CCN1CCN(CCO)CC1)Nc1ccc(OCc2ccccc2)cc1	0.8%	>57
COc1ccc2[nH]cc(CCNc3nc(-c4cccnc4)nc4ccccc34)c2c1	?	>57
Cc1ccc(C(c2nnnn2C(C)(C)C)N(Cc2ccco2)Cc2cccs2)cc1 (stereo not given)	?	>57
CN(C)Cc1nc2ccccc2c(=O)n1Cc1nc(-c2cc3ccccc3o2)cs1	?	>57
CC1=CC(C)(C)N(C(=O)c2ccccc2)c2ccccc21	-4.4%	>57
O=C(CSc1ccccn1)c1ccc(F)cc1	-4.2%	>57
O=C(O)CCC(=O)Nc1ccc2ccccc2c1	?	>57
CCc1ccc(OCc2nc(-c3ccccn3)no2)c(Br)c1	?	>57
O=C(Oc1ccccc1)N1CCC2(CC1)CN(c1ccccn1)C2	-10.9%	>57
COc1ccc(CN2C(=O)c3ccccc3C2C(=O)NC2CCCC2)c(OC)c1 (stereo not given)	-2.7%	>57
O=C(O)c1ccccc1C(=O)OCCCCOC(=O)c1ccccc1C(=O)O	-5.1%	·
c1ccc(CCn2nnnc2C(c2cccnc2)N2CCN(c3ccccc3)CC2)cc1 (stereo not given)	-4.9%	>57
Cc1cccc(N2CCN(C(=O)c3cc4c(C)nc5ccccc5c4o3)CC2)c1C	10µM*	>57
CC1=CC(C)(C)N2C(=O)C3(C(C#N)=C(N)Oc4cc(C)oc(=O)c43)c3cccc1c32 (stereo not given)	4.2%	>57
O=c1c2ccccc2cnn1-c1nc2ccccc2s1	-4.3%	>57
COc1ccc(N2CCN(Cc3nc4c(c(=O)[nH]c(=O)n4C)n3CCCc3ccccc3)CC2)cc1	0.0%	>57
CCS(=O)(=O)N1CCC(C(=O)NCCCN2CCCC2)CC1	13.2%	>57
c1ccc(CCNC2=NCCCS2)cc1	-20.0%	>57
CC(=O)CCc1c(C)[nH]c2ccccc2c1=O	6.0%	·
CC(C)(C)OC(=O)N1CCC[C@H]1c1nnc(SCc2ccccc2F)o1	-16.8%	>57
C/C(CCN1CCCCc2nc(C)c(C)cc21)=N\O[C@@H](C)c1cc(-c2c(C)cc(C)cc2C)no1	15.2%[8 µM]	·
C=CCn1c(SCn2nnc3ccccc3c2=O)nc2scc(-c3cccs3)c2c1=O	4.8%	>57
c1ccc(-c2cc3c(N4CCOCC4)ncnc3s2)cc1	-18.5%	·
Cc1ccc(NCC(O)C(O)C(O)CO)cc1C (stereo not given)	-4.4%	>57
Cc1nnc(SCCn2c(N3CCN(C)CC3)nc3c2c(=O)[nH]c(=O)n3C)s1	0.1%	>57
Other results
SMILES	Anthrax LT inh	SmPrx2 inh
COc1cc2[nH]c(=S)n(CCN3CCOCC3)c(=O)c2cc1OC	-12.1%	>57
Cc1[nH]c2ccccc2c1C1=CCNCC1	?	>57
CCN(CC)CCN(Cc1cc2cc3c(cc2[nH]c1=O)OCCO3)C(=O)NC1CCCCC1	0.4%	>57
O=C(CN1C(=O)NC(Cc2ccccc2)C1=O)Nc1ccc(F)cc1 (stereo not given)	2.7%	>57
Cn1nnnc1Sc1ncnc2scc(-c3ccc(F)cc3)c12	?	>57
CCSC1=N/C(=C\c2ccc3c(c2)OCO3)C(=O)S1	-11.7%	·
CN1CCN(c2ncc3nc(CCc4ccccc4)c(=O)n(C4CC4)c3n2)CC1	?	>57
CC(=O)NCCc1cc2ccc(C)c(C)c2[nH]c1=O	18.1%	>57
CCOC(=O)CSc1nc(C)cc(Oc2ccc(=O)n(C)n2)n1	4.0%	>57
CCCC(C)C(=O)NCc1ccccc1OC (stereo not given)	-12.7%	·
Nc1nc2ccccc2n1/N=C/c1ccc(-c2ccccc2)o1	?	>57
O=C(Nc1ccc(Oc2ccccc2)cc1)C1CCN(c2ncccn2)CC1	2.8%	>57
CCCCP(=O)(CCCC)c1ccccc1C(=O)O	5.8%	·
Nc1nonc1-c1nc2ccccc2n1Cc1ccc(F)cc1Cl	0.0%	>57
Cc1noc(NS(=O)(=O)c2ccc(NC(=O)CCC3CCCC3)cc2)c1C	14.4%	>57
CCC(=O)c1cc2c(cc1NC(=O)c1ccc(C)cc1)OCCO2	5.6%	>57
CC1=C(C)C(=O)N(CCC(=O)O)C1=O	-0.8%	>57
CCOC(=O)c1cc2c(=O)n3cccc(C)c3nc2n(CCOC)c1=NC(=O)c1ccncc1	-10.7%	>57
CS(=O)(=O)c1ccc2nc(NC(=O)CC3CCCC3)sc2c1	-10.6%	>57
COc1ccc(S(=O)(=O)NC(C(C)C)C(C)C)cc1OC	1.3%	>57
CCOC(=O)CN(C(=O)CSc1nnc2c(n1)[nH]c1ccc(OC)cc12)c1ccc(F)cc1	?	>57
Cn1c(=O)c2c(nc(CN3CCOCC3)n2CC(O)CO)n(C)c1=O (stereo not given)	·	>57
O=C(Cn1nnc(-c2ccc(Cl)cc2)n1)NCCC1=CCCCC1	-0.5%	>57
O=c1c(-c2cccs2)nc2cnc(N3CCNCC3)nc2n1-c1ccccc1	?	>11.4
c1ccc2c(c1)[nH]c1c(N3CCOCC3)ncnc12	-12.7%	>57
COC(=O)c1cc(NC(=O)C2CC=CCC2C(=O)O)cc(C(=O)OC)c1 (stereo not given)	-2.5%	>57
CC(C)CC(OC(=O)c1ccco1)C(=O)NC1CCCCC1 (stereo not given)	12.2%	>57
O=C1CC(c2ccco2)Cc2nc(Nc3nc(-c4ccccc4)c4ccccc4n3)ncc21 (stereo not given)	-2.4%	>57
CCC(=O)Nc1ccc(Oc2ccc3c(c2)C(=O)NC3=O)cc1	-4.2%	>57
CN(C)c1nc(Nc2ccc(Cl)cc2)nc(OCC#N)n1	?	>57
CCOC(=O)Cn1c2c(c(=N)c3ccccc31)CCC2	·	>57
COc1ccc(C2N=C(Nc3ccc(C)cc3)Nc3nc(C)cc(=O)n32)cc1 (stereo not given)	·	>57
Cn1nnnc1SCC(=O)NCCc1ccc(Cl)cc1	-9.5%	>57

Screening data deposited in PubChem by National Center for Advancing Translational Sciences (NCATS).
